High-throughput results deposited in PubChem by National Center for Advancing Translational Sciences (NCATS).
miR-21 FLuc = raises the signal of a miR-21 reporter; Potency, µM (doses to about 38.3 µM), without a hit: top-dose reporter change, positive = more light; AID 2288; 340,000 tested, under 10 active; HeLa miR-21 FLuc reporter, luciferase, 48 h; active = well fitted rising curve with a large enough effect; inconclusive = small, poorly fitted or top-dose-only effect; inactive = no such curve, though single readings can be large or run the other way;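 note: % of control where 0% means no effect; miR-21 action dims this reporter so a rising signal means less miR-21 action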
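Compounds were titrated across several concentrations (up to approximately 40 uM) and incubated 48 hours with HeLa miR-21-FLuc reporter cells (miR-21 target sequence downstream of FLuc, endogenous miR-21). Readout was firefly luciferase luminescence after lytic detection reagent.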
Rango complex inh = prevents formation of the Rango-importin beta complex. Rango CFP/YFP FRET sensor + importin beta, 45 min. Potency, µM (titrated, usually from 92.2 µM), for the others: at the highest dose inhibition of complex formation. AID 540263. 340,000 tested, 0.031% active. Q14974; active = rising FRET ratio curve, often small or poorly fitted; inconclusive = mostly compound fluorescence or quenching in the first reads; inactive = flat curves in all reads;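 note: potency is the fitted concentration of half-maximal effect; 0% = DMSO wells and 100% = buffer wells lacking importin beta; nearly all actives have a fitted effect of over 15% in size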
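Inhibition scored from the CFP 486 nm/YFP 530 nm FRET ratio 45 min after adding 0.125 microM importin beta to 50 nM Rango biosensor preincubated 5 min with compound (room temperature, PBS with DTT, Tween-20, BSA). No-importin wells as positive control.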
Rango dissoc inh = inhibition of RanGTP-driven Rango-importin beta dissociation | O95149+P62826 | Biochemical FRET Rango-importin beta, RanGTP-induced dissociation | Potency, µM (top dose mostly 46.1 µM), without a hit: at the highest dose activity change, negative = inhibition | 340,000 tested, 0.071% active; active means falling FRET ratio curve, often poorly fitted, with flat reads before Ran was added; inconclusive means other falling curves, or compound fluorescence or quenching; inactive means flat or rising ratio curve;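 note: potency is the fitted concentration of half-maximal effect; % of control where 0% means no effect; nearly all actives have a fitted effect of over 45% in size; -100% = wells without RanGTP and RCC1; the record marks most hits as doubtful in a second field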
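Two FRET readings bracket the reaction: one 5 min after compound meets Rango–importin beta, another 45 min after RanGTP-RCC1 (0.6 uM Ran, 0.2 uM RCC1, 2 mM GTP) is added. Only the second defines inhibition.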
GLA inh pH 4.5 = inhibitors of human alpha-galactosidase A at pH 4.5; purified enzyme, 4-MU-alpha-Gal fluorescence, pH 4.5; activity change, negative = inhibition, % at 105 µM; 230,000 tested, under 10 active; AID 1467; inconclusive = small, poorly fitted or top-dose-only inhibition, or a rising curve; inactive = flat fitted curve, though single readings scatter; no compound was filed as active;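 note: 0% = full activity with enzyme and -100% = basal without enzyme; dose as in the result columns while the protocol names 77 µM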
Target sequence (P06280 whole entry, looked up): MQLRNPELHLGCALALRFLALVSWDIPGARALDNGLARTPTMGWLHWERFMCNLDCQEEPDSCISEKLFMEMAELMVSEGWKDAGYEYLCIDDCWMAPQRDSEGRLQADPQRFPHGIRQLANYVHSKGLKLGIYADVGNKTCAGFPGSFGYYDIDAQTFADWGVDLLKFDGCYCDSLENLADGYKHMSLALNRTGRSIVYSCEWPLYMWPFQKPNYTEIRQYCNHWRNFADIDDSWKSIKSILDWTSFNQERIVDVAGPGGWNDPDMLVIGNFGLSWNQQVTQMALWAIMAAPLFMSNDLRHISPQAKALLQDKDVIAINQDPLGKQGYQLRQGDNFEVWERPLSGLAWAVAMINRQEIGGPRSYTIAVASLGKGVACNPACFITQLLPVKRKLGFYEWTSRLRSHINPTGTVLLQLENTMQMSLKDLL
Active calls of the source: *; ? = inconclusive; . = not tested or not shown; & = joins results of further samples. Only part of the results is shown; count on the stated rates, not on these rows.

SMILES	miR-21 FLuc	Rango complex inh	Rango dissoc inh	GLA inh pH 4.5
CCOC(=O)c1c(CN(CC)CC)oc2cc(Br)c(O)cc12	-6.1%	-2.3%	-8.2%	-10.9
O=c1c2cc(NC(=S)NCc3cccnc3)ccc2nc2n1CCCCC2	-22.8%	1.1%	9.1%	-5.8
Cc1cc(NC(=O)CN2CCOCC2)n(-c2nc3ccccc3s2)n1	-15.0%	2.3%	-1.6%	-6.2
COc1cc2cc(CCOC(=O)CCCC(=O)O)oc(=O)c2cc1OC	.	0.2%	0.9%	.
CC(=O)c1cccc(NC(=O)CN2CCc3cc4c(cc3C2)OCCCO4)c1	3.3%	-0.2%	9.0%	.
CC1CCN(S(=O)(=O)c2ccc3ncn(CC(=O)N(C)Cc4ccccc4)c(=O)c3c2)CC1	-7.8%	1.2%	7.0%	-16.1
O=C(Nc1ccc(Cl)cc1Cl)Nn1cnnc1	-5.0%	4.8%	1.3%	.
COC(=O)c1sc(S(=O)(=O)N2CCN(c3ccccc3)CC2)c(C(=O)OC)c1C	-5.8%	4.8%	?	-13.5
Cc1cccc(C(=O)Nc2scc(-c3ccc(Br)cc3)c2C(=O)O)c1	.	5.6%	-4.4%	.
COc1cccc2cc(-c3nnc(SCC(=O)Nc4nc(C)cs4)n3C)oc12	-2.7%	0.1%	-0.3%	-6.0
Cc1cc(C)cc(C(=O)OCC(=O)Nc2cccc(S(=O)(=O)NC3=NCCCCC3)c2)c1	0.0%	1.0%	5.6%	-7.2
CN(C)C(=O)C1OC(C)(C)OC1C(=O)N(C)C (stereo not drawn)	-1.0%	-1.8%	3.9%	9.0
O=C(NCc1cccc(F)c1)C1CCN(C(=O)c2sccc2-n2cccc2)CC1	-0.5%&2.0%	0.0%	1.3%	-11.1
CCc1cc(=O)oc2c(C)c(OCC(=O)NCCCN3CCCC3=O)ccc12	1.9%	-2.8%	0.0%	.
Cc1cc(NC(=O)COC(=O)c2ccc(S(=O)(=O)N3CCCc4ccccc43)cc2)no1	11.6%	-0.1%	-8.6%	3.1
NC(=O)c1ccc(Oc2ccc(Cl)c3ccccc23)c([N+](=O)[O-])c1	-5.0%	-3.9%	2.4%	-17.3
Cc1nn(-c2ccccc2C(=O)O)c(=O)c2ccccc12	0.2%	9.3%	3.6%	2.7
CC(C)CCNC(=O)c1c[nH]c2ccc(S(=O)(=O)N3CCC4(CC3)OCCO4)cc2c1=O	-22.7%	13.7%	-7.5%	8.4
CCc1ccc(N2CC(O)=C(c3nc4ccccc4c(=O)[nH]3)C2=N)cc1	-2.7%	-1.3%	1.2%	8.4
COc1ccc(CCNC(=O)c2cc(-c3ccc(C)cc3O)n[nH]2)cc1OC	1.2%	-3.6%	-0.6%	3.2
Cc1ccc(F)cc1NC(=O)N1CCCN(c2ccc(C(F)(F)F)cn2)CC1	15.9%	2.2%	-22.0%	-17.9
O=C(NCc1ccccc1)C1(C(F)(F)F)C/C(=C\CCO)CCCO1 (stereo not drawn)	.	0.0%	0.6%	.
CCOC(=O)Cn1c(C(=O)OCC)cc2sccc21	-2.5%	0.4%	-0.2%	-1.0
CCC1Oc2ccccc2N(CC(=O)NCCCN2CCN(CC)CC2)C1=O (stereo not drawn)	-1.9%	0.5%	-4.8%	.
Cc1nc2ccc(S(=O)(=O)NC(C(=O)NCc3ccco3)C(C)C)cc2s1 (stereo not drawn)	-0.3%	-5.2%	3.1%	-1.3

Ordered by SMILES length (smallest number first): part of the list above.
SMILES	miR-21 FLuc	Rango complex inh	Rango dissoc inh	GLA inh pH 4.5
Cc1cccc(C(=O)Nc2scc(-c3ccc(Br)cc3)c2C(=O)O)c1	.	5.6%	-4.4%	.
COc1cccc2cc(-c3nnc(SCC(=O)Nc4nc(C)cs4)n3C)oc12	-2.7%	0.1%	-0.3%	-6.0
NC(=O)c1ccc(Oc2ccc(Cl)c3ccccc23)c([N+](=O)[O-])c1	-5.0%	-3.9%	2.4%	-17.3

Additional structures.
SMILES	miR-21 FLuc	Rango complex inh	Rango dissoc inh	GLA inh pH 4.5
O=C(C1CCCN(S(=O)(=O)c2cccc3nonc23)C1)N1CCN(c2cccc(Cl)c2)CC1 (stereo not drawn)	-2.1%&-0.3%	-1.2%	9.1%	-2.8
CSc1ccc(CNC(=O)C2Cc3cc(S(=O)(=O)N4CCCCC4)ccc3N2C(C)=O)cc1 (stereo not drawn)	-4.2%	-1.7%	1.4%	.
O=S(=O)(/N=C(/Nc1ccccn1)c1ccccc1)c1ccc(F)cc1	-23.8%	4.6%	-13.1%	.
CCOC(=O)c1c(NC(=O)C2=C(C)NC(=S)NC2c2ccc(CC)cc2)sc(C)c1C (stereo not drawn)	7.2%	.	.	2.0
CCN(CC)CCNc1nc(-c2ccc(OC)cc2)c(-c2ccc(OC)cc2)s1	-6.3%	0.8%	3.5%	0.5
O=C(NCCOc1ccc(F)cc1)C1CCC(=O)N(CCCN2CCCC2=O)C1 (stereo not drawn)	1.2%	-1.4%	-8.3%	.
C=CCNc1nc(Cl)nc(Nc2ccc(OC)cc2)n1	-26.5%	0.6%	-4.7%	1.2
Cc1sc2ncnc(OCC(=O)N3CC(=O)Nc4ccccc43)c2c1C	-1.1%	?	-10.2%	3.6
COc1ccc(N2C(=O)CC(NCCNc3ccc([N+](=O)[O-])cn3)C2=O)cc1 (stereo not drawn)	-8.0%	1.3%	-9.9%	-6.0
O=S(=O)(c1ccccc1)N(CC(O)CN1CCCCC1)c1ccccc1 (stereo not drawn)	-0.9%	-0.3%	1.4%	-4.4
O=C(O)C(c1ccccc1)N1CCCC1 (stereo not drawn)	-3.8%	-1.3%	0.1%	-0.9
Cn1c2ccccc2c(=O)c2c(=O)n(C3CCCCC3)c(-c3cccs3)nc21	0.3%	-1.8%	0.9%	0.4
Clc1ccc2oc(-c3cccnc3NCc3ccccc3)nc2c1	-6.6%	-3.8%	1.1%	?
CC1CCN(CCNC(=O)CCS(=O)(=O)c2ccc(Br)cc2)CC1	-0.9%	0.8%	-11.5%	6.6
CCOC(=O)C1=C(C)OC2(O)c3ccccc3C(=O)C12O (stereo not drawn)	8.4%	0.4%	-10.2%	-15.2
COc1ccc(C2=CC(=O)C[C@H](CN3C(=O)c4ccccc4C3=O)N(C(=O)OC(C)(C)C)O2)cc1	.	?	-10.2%	.
COc1ccc2c(c1OC)C(=O)OC2Nc1nc(-c2cc3cc([N+](=O)[O-])ccc3oc2=O)cs1 (stereo not drawn)	-1.8%	2.5%	1.6%	-2.1
CCCCCc1c(C)nc(SCC(=O)O)[nH]c1=O	-1.4%	1.6%	-2.3%	-0.8
COc1ccccc1N1CCN(Cc2c[nH]c3ccccc23)CC1	6.0%	2.3%	0.4%	-0.3
Cc1ccc([N+](=O)[O-])cc1S(=O)(=O)NCCc1c(C)[nH]c2ccccc12	-5.8%	0.2%	-9.7%	-8.4
O=C(CSc1nc(-c2cccs2)cc(C(F)(F)F)n1)NCc1ccccc1	8.1%	-3.2%	-9.9%	0.6
Cc1ccc(/C=N/N=C/c2ccc(C)s2)s1	-63.5%	-0.2%	4.2%	-4.1
CC1CN(C(=O)CCC(=O)NCc2ccccc2Cl)c2ccccc2S1 (stereo not drawn)	-8.0%	0.9%	11.4%	.
COc1ccc2cc(CCNC(=O)CC(C)(C)C)c(=O)[nH]c2c1	-24.1%	0.4%	16.8%	-1.4
CC(=O)Nc1sc(-c2ccc(Cl)cc2)nc1-c1ccccc1	-4.8%	-1.0%	7.7%	4.9

(further entries)
SMILES	miR-21 FLuc	Rango complex inh	Rango dissoc inh	GLA inh pH 4.5
COc1ccc(C2(C)NC(=O)N(CC(=O)c3cc(C)n(C4CC4)c3C)C2=O)cc1OC (stereo not drawn)	.	-3.3%	-6.1%	.
O=C(NC1CCCCC1)C(c1ccccc1F)N(C(=O)c1csnn1)C1CCCC1 (stereo not drawn)	1.0%	-1.8%	-7.1%	.
CC1CCN(CCCNC(=O)CN2C(=O)CSc3ccc(S(=O)(=O)N4CCCCC4)cc32)CC1	-1.5%&2.0%	-5.5%	-10.7%	.
CCOC(=O)c1ccccc1NC(=O)COC(=O)Cc1ccccc1F	.	0.1%	-10.4%	.
CCCC(=O)NC(=S)Nc1ccccc1F	-23.4%	3.0%	0.7%	6.7
CCN(CC)C(=O)CC(c1ccc2c(c1)OCO2)c1c(OC)cc(OC)c2c(-c3ccccc3)cc(=O)oc12 (stereo not drawn)	-15.2%	-0.3%	1.6%	-6.8
CCOC(=O)c1cc(NC(=O)Nc2nccs2)c(C)nc1C	0.8%	2.5%	-12.8%	-6.4
O=C(Nc1ccc(F)cc1F)c1cc(Cl)sc1Cl	-36.4%	-1.7%	7.5%	.
Clc1ccccc1Cn1nnc(-c2ccccc2)n1	-57.9%	-1.8%	1.6%	8.4
COc1ccc(C(C(=O)NC2CCCCC2)N(CC2CCCO2)C(=O)C2COc3ccccc3O2)cc1OC (stereo not drawn)	-8.3%	-0.5%	0.1%	0.5
O=C(CN1CCN(S(=O)(=O)c2ccc(Br)cc2)CC1)N/N=C/c1ccc(Cl)c([N+](=O)[O-])c1	-1.9%	0.9%	-11.1%	-6.5
Cc1ccc(S(=O)(=O)NNC(=O)Nc2cccc3ccccc23)cc1	-7.8%	4.3%	-5.5%	-4.1
COc1ccc(-n2c(=O)n(Cc3ccccc3)c(=O)c3[nH]cnc32)cc1	-11.8%	0.5%	-1.4%	-11.2
COc1ccc(COCC(O)CN2CCC(CN3C(=O)c4cccc5cccc(c45)C3=O)CC2)cc1OC (stereo not drawn)	15.8%	4.1%	-8.4%	-9.0
COC(=O)c1ccc(Cn2c(O)c(N=O)c3ccccc32)o1	-19.0%	-0.9%	0.6%	-2.7
O=C(NCCc1ccccc1)c1ccccc1SCC(=O)N1CCCC1	-38.8%	2.5%	-3.3%	.
O=C(CSc1ccccc1F)NNC(=O)c1cncc(Br)c1	.	-2.7%	-0.1%	.
Cc1nn(CC(=O)N(C)C2CCS(=O)(=O)C2)c(C)c1S(=O)(=O)N(C)C (stereo not drawn)	.	0.7%	-4.5%	.
CC(=O)c1cn(CCCCCCCCCCn2cc(C(C)=O)c(=O)[nH]c2=O)c(=O)[nH]c1=O	-1.2%	.	.	-1.4

Sorted by value in Rango dissoc inh (high to low): 4 from the list above
| SMILES | miR-21 FLuc | Rango complex inh | Rango dissoc inh | GLA inh pH 4.5 |
| --- | --- | --- | --- | --- |
| COc1ccc(CCNC(=O)c2cc(-c3ccc(C)cc3O)n[nH]2)cc1OC | 1.2% | -3.6% | -0.6% | 3.2 |
| COc1ccc(C2=CC(=O)C[C@H](CN3C(=O)c4ccccc4C3=O)N(C(=O)OC(C)(C)C)O2)cc1 | . | ? | -10.2% | . |
| CC1CCN(CCCNC(=O)CN2C(=O)CSc3ccc(S(=O)(=O)N4CCCCC4)cc32)CC1 | -1.5%&2.0% | -5.5% | -10.7% | . |
| O=C(CN1CCN(S(=O)(=O)c2ccc(Br)cc2)CC1)N/N=C/c1ccc(Cl)c([N+](=O)[O-])c1 | -1.9% | 0.9% | -11.1% | -6.5 |
